# GLA inh pH 4.5 – alpha-galactosidase A (human) inhibition, pH 4.5. activity change, negative = inhibition, % at 105 µM. purified enzyme, 4-MU-alpha-Gal fluorescence, pH 4.5. 230,000 tested, under 10 active; inconclusive = small, poorly fitted or top-dose-only inhibition, or a rising curve; inactive = flat fitted curve, though single readings scatter; no compound was filed as active;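 note: 0% = full activity with enzyme and -100% = basal without enzyme; dose as in the result columns while the protocol names 77 µM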
# Target sequence (P06280 whole entry, looked up): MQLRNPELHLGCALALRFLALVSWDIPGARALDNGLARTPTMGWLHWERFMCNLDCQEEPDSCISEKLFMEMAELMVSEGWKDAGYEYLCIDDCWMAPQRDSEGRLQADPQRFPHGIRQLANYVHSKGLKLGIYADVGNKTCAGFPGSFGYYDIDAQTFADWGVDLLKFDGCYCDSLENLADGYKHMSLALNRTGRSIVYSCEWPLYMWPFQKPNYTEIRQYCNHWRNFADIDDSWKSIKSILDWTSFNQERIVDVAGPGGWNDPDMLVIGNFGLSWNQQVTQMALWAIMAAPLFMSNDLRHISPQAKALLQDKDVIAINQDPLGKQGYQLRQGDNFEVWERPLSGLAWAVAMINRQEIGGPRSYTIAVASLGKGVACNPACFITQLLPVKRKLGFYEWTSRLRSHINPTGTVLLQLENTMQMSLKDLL
# Rango-impB inh – prevents formation of the Rango-importin beta complex; 0.031% of 340,000 active; Q14974; Potency, µM (titrated, usually from 92.2 µM), inactives show at the highest dose inhibition of complex formation; Rango CFP/YFP FRET sensor + importin beta, 45 min; active = rising FRET ratio curve, often small or poorly fitted; inconclusive = mostly compound fluorescence or quenching in the first reads; inactive = flat curves in all reads;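 note: potency is the fitted concentration of half-maximal effect; 0% = DMSO wells and 100% = buffer wells lacking importin beta; nearly all actives have a fitted effect of over 15% in size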
#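 FRET biosensor Rango (snurportin 1 IBB between N-terminal EYFP and C-terminal Cerulean), 50 nM in PBS/1 mM DTT/0.02% Tween-20/0.1% BSA, preincubated 5 min RT with compound; 0.125 microM importin beta added, 45 min RT, CFP/YFP FRET ratio read.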
# Rango dissoc inh – inhibition of RanGTP-driven Rango-importin beta dissociation; O95149+P62826; Biochemical FRET Rango-importin beta, RanGTP-induced dissociation; Potency, µM (doses to about 46.1 µM), inactives show at the top dose activity change, negative = inhibition; 0.071% of 340,000 active; active means falling FRET ratio curve, often poorly fitted, with flat reads before Ran was added; inconclusive means other falling curves, or compound fluorescence or quenching; inactive means flat or rising ratio curve;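 note: potency is the fitted concentration of half-maximal effect; % of control where 0% means no effect; nearly all actives have a fitted effect of over 45% in size; -100% = wells without RanGTP and RCC1; the record marks most hits as doubtful in a second field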
#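 Quantitative HTS using a FRET biosensor: 0.1 uM Rango, 0.25 uM importin beta, 0.6 uM Ran, 2 mM GTP, 0.2 uM RCC1 final, PBS with DTT, Tween-20 and BSA. Post-read taken 45 min after Ran addition.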
# miR-21 reporter – raises the signal of a miR-21 reporter. HeLa miR-21 FLuc reporter, luciferase, 48 h. 340,000 tested, under 10 active. Potency, µM (highest dose often 38.3 µM), without a hit: at the highest dose reporter change, positive = more light. AID 2288; active = well fitted rising curve with a large enough effect; inconclusive = small, poorly fitted or top-dose-only effect; inactive = no such curve, though single readings can be large or run the other way;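 note: % of control where 0% means no effect; miR-21 action dims this reporter so a rising signal means less miR-21 action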
#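 Using DMEM plus 10% FBS, HeLa miR-21-FLuc cells are incubated with test compounds (final up to about 40uM) for 48 hours; firefly luciferase signal is then imaged following reagent-mediated lysis.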
# The depositor's hits bear a star; u = inconclusive; x = not tested or not shown; & = joins results of further samples.
Rango dissoc inh	miR-21 reporter	Rango-impB inh	GLA inh pH 4.5	Molecule
0%	-3%	-2.1%	7	Cn1c(=O)n(C)c2cc([N+](=O)[O-])c(N3CCN(C(=O)c4ccc(F)cc4)CC3)cc21
13%	1%	-0.8%	3	COC(=O)C(Cc1ccccc1)NC(=O)C12CC3CC(CC(C3)C1)C2 (centres undefined)
-9%	x	2.6%	x	Cc1ccc(-n2c(=O)c3c4c(sc3n3c(C)nnc23)COC(C(C)C)C4)cc1 (centres undefined)
36%	7%	4.9%	-6	N#C/C(=C(/O)CCl)c1nnc2n1CCCCC2
1%	-11%	1.4%	2	Cc1cccc(C)c1N1CCN(C(=O)N2CCOCC2)CC1
16%	9%	2.6%	-5	Cc1ccc(C)c(NC(=O)CCC(=O)N/N=C/c2cc([N+](=O)[O-])ccc2O)c1
-5%	-1%	-3.7%	-6	CCOc1cc(Br)ccc1S(=O)(=O)N1CCC(C(N)=O)CC1
-10%	-1%	u	1	O=C(/C=N/O)NCCCn1ccnc1
0%	x	0.5%	x	O=C(NCCCN1CCOCC1)c1cc(S(=O)(=O)N2CCOCC2)c(Cl)cc1Cl
-2%	-38%	-4.4%	1	COc1ccc(OC)c(NC(=O)CN(c2ccc(OC)c(Cl)c2)S(C)(=O)=O)c1
25%	-7%	-4.2%	-1	O=C(NCCc1csc(-c2cccnc2)n1)c1c(F)cccc1F
7%	-2%	-0.1%	-1	Cc1noc(NS(=O)(=O)c2ccc(NC(=O)C34CC5CC(C3)CC(n3cnc(Cl)n3)(C5)C4)cc2)c1C
-3%	-24%	-1.1%	-25	O=C(CSc1nccn1-c1ncc(C(F)(F)F)cc1Cl)c1ccc(Cl)cc1
-2%	-5%	0.1%	-12	Cc1cc2cc3c(cc2nc1SCC(=O)N1c2ccccc2CC1C)OCO3 (centres undefined)
1%	2%	3.2%	2	CC(c1ccc(F)cc1)n1cc(C(=O)NCc2ccccn2)nn1 (centres undefined)
-16%	1%	5.2%	-6	CCOc1ccccc1NC(=O)c1ccc(F)c(S(=O)(=O)N2CCC3(CC2)OCCO3)c1
2%	-13%	-0.1%	-5	COc1ccc(O/C(=N\S(=O)(=O)c2ccccc2)c2ccccc2)cc1
-12%	-14%	1.6%	x	COC(=O)c1ccc(OCC(O)CNCC(c2ccc(OC)cc2)N(C)C)c(OC)c1 (centres undefined)
0%	x	-0.6%	x	CN(C)c1nc(Cl)nc2c1nc(Cl)n2C1CCCCO1 (centres undefined)
u	0%	-3.4%	-7	CCCc1cc(=O)n2[nH]c(Cc3ccccc3)nc2n1
-13%	3%	-1.3%	4	COc1ccc(N(CC(=O)Nc2ccc3c(c2)OCCO3)S(=O)(=O)c2c(C)noc2C)cc1
-9%	0%	3.0%	4	COCc1cc(C)nc(OC)c1C(N)=O
28%	4%	1.0%	-3	O=C(c1cn(-c2ccccc2)nc1-c1cc2ccccc2oc1=O)N1CCOCC1
12%	2%	-3.6%	x	CCCCc1nc(SCC(=O)N2CCOCC2)c2c(=O)n(C)c(=O)n(C)c2n1
-8%	-4%	0.4%	7	Cc1ccc(/C=C/C(=O)NCCCN2CCN(CCCNC(=O)/C=C/c3ccc(C)o3)CC2)o1
-12%	-2%	4.3%	-6	CCc1ccccc1NC(=O)CSc1nc2n[nH]c(C)c2c(=N)n1-c1ccc(OC)cc1
0%	-6%	-1.3%	10	CC1CCCCC1NC(=O)c1cncc(Br)c1 (centres undefined)
18%	0%&1%	-2.6%	x	CN1CCN(C(=O)c2ccc3c(c2)N(Cc2ccc(F)cc2)C(=O)c2ccccc2S3=O)CC1 (centres undefined)
4%	-12%	-1.0%	-12	CSc1nc(SC)c2c3c(oc2n1)COC(C)(C)C3
15%	-14%	3.3%	-6	CN(C)C(=S)SCC(=O)NC(=O)NC(C)(C)C
3%	-3%	-1.2%	x	CCOC(=O)CSc1nc2c(cnn2-c2ccc(Cl)cc2)c(=O)[nH]1
-2%	-5%	2.3%	0	O=C(NCC1CCCO1)c1cc2c(s1)CS(=O)(=O)C2 (centres undefined)
-11%	-5%	5.7%	-1	Cc1cccc(NC(=O)c2ccc(OCC(=O)NCc3ccccc3)cc2)c1C
-15%	x	1.4%	x	C#CC(CC)(CC)NC(=O)c1cc(S(=O)(=O)N2CCCCC2)ccc1N1CCOCC1
-13%	x	0.9%	x	COc1ccc(C)cc1NC(=O)CN1C(=O)C2CC=CCC2C1=O (centres undefined)
-7%	15%	-5.4%	-16	Cn1c(Cn2nnc3ccccc32)nnc1SCC(=O)N1c2ccccc2Sc2ccccc21
2%	-1%&3%	0.5%	0	CC(=O)c1cc(-c2ccccc2)n(CC(=O)NC2CCCCC2)c1C
-16%	3%	2.0%	1	Cc1nc(-c2cccnc2)sc1C(=O)Nc1ccc(C(F)(F)F)cc1
-10%	2%	-3.9%	-9	CCOC(=O)c1nnn(-c2nonc2N)c1COc1cc(C)c(Cl)c(C)c1
1%	0%	1.9%	x	Nc1cc(OC(=O)c2ccc(F)cc2)nn1S(=O)(=O)c1ccccc1
2%	x	-3.0%	x	Cc1nc([N+](=O)[O-])cn1CC(=O)c1ccc(Br)cc1
11%	x	0.3%	x	O=C(c1cc(S(=O)(=O)N2CCOCC2)ccc1F)N(Cc1nnc(-c2ccccc2Cl)o1)C1CC1
u	x	-4.8%	x	CCOc1cc(N2CCOCC2)c(OCC)cc1NC(=O)COC(=O)c1ccc(OC)c([N+](=O)[O-])c1
u	-5%	u	0	N#C/C(=C(/O)c1cccs1)c1nc2ccccc2[nH]1
2%	-5%	2.5%	-3	CC(=O)NC1(C(F)(F)F)N=C2SCCN2C1=O (centres undefined)
-29%	-1%	u	-2&-4	COC(=O)CCCC1=CC2=CC(=O)C(C)(OC(=O)c3cccs3)C(=O)C2=CN1c1cccc(C#N)c1 (centres undefined)
7%	-6%	0.0%	u	COc1ccc(S(=O)(=O)N2CCN(CC(=O)Nc3cc(C(F)(F)F)ccc3Cl)CC2)cc1
-12%	0%	0.9%	-7	COc1ccc(NS(=O)(=O)c2ccc3oc(=S)[nH]c3c2)cc1
-22%	-4%	0.2%	0	Cc1cc(C(F)(F)F)nc(SCc2ccc(C(=O)O)o2)n1
18%	-5%	0.5%	-2	CC(C)Cc1nnc(NC(=O)CCC(=O)N2CCOCC2)s1
u	-5%	-0.1%	-1	Cc1ccc(-n2c(C)cc3c2CCCC3=O)cc1
-2%	-12%	0.6%	-5	CCCNC(=O)C12CCC(C)(c3nc4cc(C)c(C)cc4nc31)C2(C)C (centres undefined)
1%	-1%	-3.6%	x	CC1CCN(C(=O)COC(=O)Cc2ccc(Br)cc2)CC1
-8%	0%	-2.7%	2	O=C(c1ccccc1)N1CCCCC(Cl)C1=O (centres undefined)
-11%	-3%	-5.0%	3	CCC1NC(=S)N(C2CCCCC2)C1=O (centres undefined)
21%	-3%	-2.7%	1	CCCn1nnc(NC(=O)/C=C/c2ccc(C(C)C)cc2)n1
18%	-3%	-1.2%	4	CC(C)Cn1c(CNC(=O)c2ccccc2)nc2ccccc21
40%	-6%	u	-3	O=C(c1ccc2snnc2c1)N1CCCC1
14%	0%	-4.1%	-13	COc1ccccc1NC(=O)C1=C(C)Nc2nc(-c3ccccc3)nn2C1c1ccccn1 (centres undefined)
2%	-7%	-0.7%	7	CCSc1nnc([C@H](C)NC(=O)OC(C)(C)C)o1

# One compound at a time (already shown):
# Entry for CCC1NC(=S)N(C2CCCCC2)C1=O (centres undefined) = Rango dissoc inh = -11%; miR-21 reporter = -3%; Rango-impB inh = -5.0%; GLA inh pH 4.5 = 3
# Entry for CC(=O)NC1(C(F)(F)F)N=C2SCCN2C1=O (centres undefined) = Rango dissoc inh = 2%; miR-21 reporter = -5%; Rango-impB inh = 2.5%; GLA inh pH 4.5 = -3

# Sorted by value in miR-21 reporter (high to low): three from the list above.
compound,miR-21 reporter
CC(C)Cn1c(CNC(=O)c2ccccc2)nc2ccccc21,-3%
Cc1cc(C(F)(F)F)nc(SCc2ccc(C(=O)O)o2)n1,-4%
Cc1cccc(NC(=O)c2ccc(OCC(=O)NCc3ccccc3)cc2)c1C,-5%

# (continued)
Rango dissoc inh	miR-21 reporter	Rango-impB inh	GLA inh pH 4.5	Molecule
11%	-10%	2.2%	x	O=C(CN1C(=O)CCS(=O)(=O)c2ccccc21)Nc1ccc(Cl)cc1
-10%	-2%	-1.3%	0	O=C(NC1(C(F)(F)F)C(=O)Nc2c1c(=O)[nH]c(=O)n2Cc1ccccc1)c1ccc(Cl)cc1 (centres undefined)
-9%	21%	-5.6%	3	Cc1cnc(NC(=O)COc2ccccc2Cl)s1
3%	x	-0.7%	x	CCOC(=O)[C@H]1[C@H]2COc3ccc(OC)cc3[C@@H]2N2C(=O)CN(Cc3ccc(F)cc3)C(=O)[C@@]12C
19%	-2%	-4.0%	x	CC(NC(=O)c1cc(S(=O)(=O)N(C)C)ccc1Cl)c1ccc(-n2ccnc2)cc1 (centres undefined)
-2%	3%	-0.5%	-7	CCOc1cc(N2CCOCC2)c(OCC)cc1NC(C)C(=O)N1CCN(CC)CC1 (centres undefined)
3%	18%	u	x	O=C(CCS(=O)(=O)c1ccccc1)Nc1ncc([N+](=O)[O-])s1
-3%	x	-2.9%	x	O=C1OCCN1c1ccccc1
-8%	-3%	0.0%	6	CCCOc1ccc(N2C(=O)CC(N(Cc3ccco3)C(C)=O)C2=O)cc1 (centres undefined)
-4%	-5%	3.2%	0	O=C(O)C1CC=CCC1C(=O)Nc1ccc(F)c(F)c1 (centres undefined)
4%	-1%	0.7%	12	COc1ccc(NC(=O)Nc2sc(=S)n(C)c2C)cc1
3%	-1%	0.2%	13	Cn1c(=O)c2cc3ccccc3nc2n(C)c1=O
-3%	-16%	-5.5%	-5	c1ccc(Cn2c(SCc3nc4ccccc4s3)nnc2-c2ccco2)cc1
-7%	-18%	0.5%	-2	Cc1ccc([N+](=O)[O-])cc1S(=O)(=O)N1CCNCC1
-4%	7%	-2.3%	x	COc1cccc(CN2CCC(n3nccc3NC(=O)CCCc3ccccc3)CC2)c1O
-4%	0%	-0.2%	x	O=C(COC(=O)c1nc(Cl)ccc1Cl)NC(=O)c1ccccc1
5%	-5%	0.3%	x	CCn1nnc(NC(=O)c2ccc(Br)o2)n1
0%	-36%	4.1%	x	Cn1c(CCNC(=O)c2ccco2)nc2cc(NC(=O)c3ccccc3)ccc21
-7%	11%	3.0%	1	CCO[C@@H]1OC(C(=O)N2CCN(Cc3ccc4c(c3)OCO4)CC2)=C[C@H](c2coc3ccccc3c2=O)[C@H]1CCCO
2%	x	-3.4%	x	CCCCOc1ccc(C(=O)NCC(=O)N2CCN(Cc3ccc4c(c3)OCO4)CC2)cc1
3%	-3%	2.6%	x	COc1ccc(CCNS(=O)(=O)c2ccc3c(c2)NC(=O)CS3)cc1OC
-15%	0%	-0.8%	-5	COc1cc(C(=S)N2CCOCC2)cc(OC)c1OC(=O)Cc1ccc(F)cc1
22%	x	1.4%	x	CC(NC(=O)COC(=O)c1ccc([N+](=O)[O-])o1)c1ccccc1 (centres undefined)
-11%	27%	0.0%	x	CCCCOc1ccccc1C(=O)NNC(=S)NC(=O)c1ccccc1[N+](=O)[O-]
-5%	5%	-3.9%	x	COc1ccc(C)cc1S(=O)(=O)Nc1ccc(F)cc1
6%	-4%	1.2%	3	CCCc1c(O)nc(SCCN(CC)CC)[nH]c1=O
1%	1%	1.7%	-3	COC(=O)c1c(C)oc(C)c1S(=O)(=O)NC(C)(C)C
1%	11%	-1.7%	x	COc1ccc(CNC(=O)CN(C(=O)CCC(=O)Nc2ccccn2)c2cccc(C)c2C)cc1
-19%	-56%	u	0	Cc1ccc(N=Cc2ccc[nH]2)c(O)c1
-6%	0%	-1.2%	0	OCCCc1ccc(O)c(O)c1
5%	-1%	0.9%	-28	Cc1cccc(NC(=O)COC(=O)Cc2c[nH]c3ccccc23)c1C
-7%	-30%	2.3%	-5	O=C(CN1CCOCC1)Nc1nc2ccc(F)cc2s1

# For reference, some entries already given:
Rango dissoc inh	miR-21 reporter	Rango-impB inh	GLA inh pH 4.5	Molecule
5%	-1%	0.9%	-28	Cc1cccc(NC(=O)COC(=O)Cc2c[nH]c3ccccc23)c1C
-7%	-30%	2.3%	-5	O=C(CN1CCOCC1)Nc1nc2ccc(F)cc2s1

# Screening data as filed in PubChem BioAssay.

# Not all compounds are listed. The share of hits here may be higher or lower than overall.
